Assay outcomes deposited in PubChem BioAssay by Broad Institute.
rRNA inh HTS: inhibits bacterial ribosomal RNA function over humanized ribosomes. GFP signal change (wild-type ribosome), % (concentration not given with the values). E. coli WT GFP vs humanized-ribosome RFP mutants, fluorescence, 24 h; hits give low values; DMSO median 0, no signal -100. 350,000 tested, 1.6% active. AID 720706;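 active = significant combined selectivity score with lowered wild-type GFP, culture density cut under 30%, mutant RFP and density less affected; inactive = any of these conditions unmet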; note: one replicate is shown; some compounds called inactive have numbers as strong as hits
rRNA inh HTS OD600: second read-out of rRNA inh HTS, no call of its own (marks repeat the call); OD600 change, %; measured here: OD600 growth;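 optical density of the mix in the first replicate; 0 = DMSO median and -100 = no signal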
rRNA inh HTS RFP: also measured in rRNA inh HTS; calls as there; RFP signal change, %; measured here: RFP humanized mutant strains;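 first replicate; 0 = DMSO median and -100 = no signal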
The depositor's hits bear a star. An excerpt. The share of hits here may be higher or lower than overall.

1: C[C@@H]1COCc2cnnn2CC[C@@H](Cc2ccccc2)C(=O)N1
2: Cc1noc(C)c1S(=O)(=O)N(C)C[C@H]1Oc2ccc(NC(=O)Cc3ccccc3)cc2CC(=O)N([C@H](C)CO)C[C@H]1C
3: COc1ccc2c3c([nH]c2c1)[C@H](CO)N(Cc1ccc(F)cc1)CC31CN(C)C1
4: CCN1Cc2cc(C(=O)NCCN3CCCC3)nc(-c3cccc(C4=CCCC4)c3)c2[C@H]1CCO
5: CCS(=O)(=O)Nc1ccc2c(c1)C(=O)N(C)C[C@H](OC)[C@H](C)CN(C(=O)COC)[C@H](C)CO2
screen / no.,1,2,3,4,5
rRNA inh HTS,6,1,0,2,1
rRNA inh HTS OD600,12,2,4,1,2
rRNA inh HTS RFP,-2.2,0.3,2.2,4.2,-1.6

6: CC(=O)N1[C@@H]2CN(C(=O)c3ccc(F)cc3)c3ccccc3[C@@H]2[C@@H]1CO
7: C[C@H](CO)N1C[C@H](C)[C@H](CN(C)Cc2ccccc2)Oc2ncc(C#Cc3ccccn3)cc2C1=O
8: COc1ccc2c3c(n(C)c2c1)[C@@H](CO)N(C(=O)Nc1ccc(F)cc1)CC31CN(C)C1
9: CCC(=O)Nc1ccc2c(c1)C(=O)N(C)C[C@@H](OC)[C@@H](C)CN(CC1CCOCC1)[C@@H](C)CO2
10: COc1ccc(C[C@H]2CCn3cc(nn3)COC[C@H](C)NC2=O)cc1
screen / no.,6,7,8,9,10
rRNA inh HTS,3,11,-1,0,-1
rRNA inh HTS OD600,1,7,-15,-3,-4
rRNA inh HTS RFP,0.3,-0.2,-1.3,-0.4,0.1

Shown with tabs: part of the list above
No.	compound	rRNA inh HTS	rRNA inh HTS OD600	rRNA inh HTS RFP
10	COc1ccc(C[C@H]2CCn3cc(nn3)COC[C@H](C)NC2=O)cc1	-1	-4	0.1
6	CC(=O)N1[C@@H]2CN(C(=O)c3ccc(F)cc3)c3ccccc3[C@@H]2[C@@H]1CO	3	1	0.3
7	C[C@H](CO)N1C[C@H](C)[C@H](CN(C)Cc2ccccc2)Oc2ncc(C#Cc3ccccn3)cc2C1=O	11	7	-0.2
8	COc1ccc2c3c(n(C)c2c1)[C@@H](CO)N(C(=O)Nc1ccc(F)cc1)CC31CN(C)C1	-1	-15	-1.3
9	CCC(=O)Nc1ccc2c(c1)C(=O)N(C)C[C@@H](OC)[C@@H](C)CN(CC1CCOCC1)[C@@H](C)CO2	0	-3	-0.4

(listing goes on)
11: CN(C)C(=O)c1ccc(-c2ccccc2[C@H]2[C@@H](CO)N(C(=O)C3CC3)[C@H]2C#N)cc1
12: C[C@H]1CN([C@@H](C)CO)C(=O)c2cccc(NC(=O)C3CCCCC3)c2O[C@H]1CN(C)S(=O)(=O)c1ccc(Cl)cc1
13: C[C@H]1CN([C@@H](C)CO)S(=O)(=O)c2ccc(-c3ccncc3)cc2O[C@H]1CN(C)C(=O)C1CCC1
14: CC(C)(C)NC(=O)C1C(c2ccc(C(F)(F)F)cc2)=Nc2ccccc2N1C(=O)c1cccc2ccccc12 (configuration not stated)
15: CCCNC(=O)C[C@@H]1CC[C@@H]2[C@H](COc3ccc(NC(=O)c4ccc(Cl)cc4)cc3C(=O)N2C)O1
screen / no.,11,12,13,14,15
rRNA inh HTS,6,-10,0,11,-5
rRNA inh HTS OD600,13,-20,-7,18,-16
rRNA inh HTS RFP,1.0,2.0,-0.9,1.7,-0.7

16: C[C@H](O)[C@@H]1C(=O)N2CCc3c([nH]c4c(-c5ccc6c(c5)OCO6)cccc34)[C@@H]2C[C@@H]1N(C)C(=O)Nc1ccccc1
17: C[C@H]1CN([C@@H](C)CO)S(=O)(=O)c2ccc(-c3ccncc3)cc2O[C@H]1CN(C)Cc1ccncc1
18: C[C@@H]1CCCCO[C@H](CN(C)S(=O)(=O)c2ccc(F)cc2)[C@@H](C)CN([C@@H](C)CO)C(=O)c2cc(NS(=O)(=O)c3ccc(F)cc3)ccc2O1
19: O=C(N[C@@H](Cc1cccnc1)C(=O)N1CCC[C@H]1C(=O)NCCc1ccccc1Cl)c1ccc(Cl)c(Cl)c1
20: COc1ccccc1NC(=O)N1CC(=O)N2[C@@H](CO)[C@@H](c3ccc(C#CCC(C)C)cc3)[C@@H]2C1
screen / no.,16,17,18,19,20
rRNA inh HTS,-4,-1,2,-40,-14
rRNA inh HTS OD600,-2,5,4,-65,-47
rRNA inh HTS RFP,3.3,-6.3,-1.0,7.6,27

21: COc1ccc(NC(=O)N(C)C[C@@H]2OCc3cn(nn3)CCCC(=O)N([C@@H](C)CO)C[C@@H]2C)c(OC)c1
22: CCCN(C)C[C@@H]1Oc2cc(C#CCC3CCCC3)ccc2S(=O)(=O)N([C@@H](C)CO)C[C@H]1C
23: COC(=O)C1=C(C)N(CC(C)C)C(=S)NC1c1cccc(F)c1 (configuration not stated)
24: C[C@@H]1CN(C)C(=O)c2cccc(N(C)C)c2O[C@@H]1CN(C)S(C)(=O)=O
25: C/C=C/c1ccc([C@H]2[C@@H](CO)N(C(=O)CC)[C@H]2CNC(=O)c2ccncc2)cc1
screen / no.,21,22,23,24,25
rRNA inh HTS,0,6,-22,2,2
rRNA inh HTS OD600,-1,-2,-47,8,6
rRNA inh HTS RFP,-2.2,-0.1,8.9,-1.7,1.0

26: C[C@H](O)[C@@H]1C(=O)N2CCc3c([nH]c4c(-c5ccccc5)cccc34)[C@@H]2C[C@@H]1N(C)C(=O)OCc1ccccc1
27: CCC(=O)N1C[C@@H](C)[C@H](OC)CN(C)C(=O)c2cc(NC(=O)c3cc(C)on3)ccc2OC[C@H]1C
28: C[C@H]1CN(C)C(=O)c2cccc(NS(C)(=O)=O)c2O[C@@H]1CN(C)S(C)(=O)=O
29: C[C@@H]1CCCCO[C@@H](CN(C)Cc2ccccc2)[C@H](C)CN([C@H](C)CO)C(=O)c2cc(N(C)C)ccc2O1
30: C[C@H](O)[C@@H]1CN2CCc3ccc(-c4ccc5c(c4)OCO5)cc3[C@@H]2C[C@@H]1N(C)C(=O)NC1CCCCC1
screen / no.,26,27,28,29,30
rRNA inh HTS,2,2,1,2,-7
rRNA inh HTS OD600,-8,-5,2,2,-7
rRNA inh HTS RFP,58,-0.2,-0.5,-1.0,7.9

31: CO[C@H]1CN(C)C(=O)c2cc(NC(=O)Nc3ccc(Cl)cc3)ccc2OC[C@H](C)N(C(=O)Nc2c(C)noc2C)C[C@@H]1C
32: C[C@@H]1CN([C@H](C)CO)C(=O)Cc2cc(NS(=O)(=O)c3ccccc3)ccc2O[C@@H]1CN(C)S(=O)(=O)c1ccc(F)cc1
33: CCCNC(=O)C[C@H]1CC[C@@H]2[C@H](COc3ccc(NC(=O)Nc4ccccc4)cc3C(=O)N2C)O1
34: COc1cccc(-c2ccc([C@@H]3[C@@H](CO)N4CCCCN(Cc5cncnc5)C[C@@H]34)cc2)c1
35: CO[C@@H]1CN(C)C(=O)c2ccc(NC(=O)c3cc(C)on3)cc2OC[C@@H](C)N(S(=O)(=O)c2ccccc2)C[C@H]1C
screen / no.,31,32,33,34,35
rRNA inh HTS,-3,-3,3,-1,-7
rRNA inh HTS OD600,-6,-10,2,-6,-10
rRNA inh HTS RFP,5.8,-1.9,0.0,-0.8,2.8

36: C[C@H]1CCCCO[C@H](CN(C)C(=O)CCCN(C)C)[C@@H](C)CN([C@@H](C)CO)C(=O)c2cc(NC(=O)c3ccncc3)ccc2O1
37: COC(=O)C1=C(C)N(Cc2ccccc2C(F)(F)F)C(=NCc2cccc(C(F)(F)F)c2)NC1c1ccc(F)cc1 (configuration not stated)
38: N#Cc1cccc(-c2ccc3c(c2)[C@@H]2[C@@H](CCN2C(=O)c2ccncc2)[C@H](CO)N3)c1
39: CC(C)NC(=O)Nc1ccc2c(c1)C(=O)N(C)[C@@H]1CC[C@H](CC(=O)NCC(F)(F)F)O[C@@H]1CO2
40: C[C@@H]1CN([C@@H](C)CO)C(=O)c2cc(NC(=O)Nc3ccc4c(c3)OCO4)ccc2O[C@@H](C)CCCCO[C@H]1CN(C)C(=O)CCCN(C)C
screen / no.,36,37,38,39,40
rRNA inh HTS,5,0,-4,2,2
rRNA inh HTS OD600,10,-3,-6,1,4
rRNA inh HTS RFP,-3.3,9.7,-0.1,-2.4,-0.5

41: CCC(=O)Nc1ccc2c(c1)C(=O)N(C)C[C@@H](OC)[C@H](C)CN(Cc1nccs1)[C@@H](C)CO2
42: COc1ccc(S(=O)(=O)N2CCCCN3[C@H](CO)[C@@H](c4ccc(C#CCC(C)C)cc4)[C@@H]3C2)cc1
43: C[C@@H]1CN([C@@H](C)CO)S(=O)(=O)c2ccc(-c3ccc(F)cc3)cc2O[C@@H]1CN(C)Cc1cccc(F)c1
44: CCC(=O)Nc1ccc2c(c1)OC[C@@H](C)N(C(=O)Cc1ccccn1)C[C@H](C)[C@H](OC)CN(C)C2=O
45: C[C@@H]1CN([C@@H](C)CO)C(=O)c2ccccc2-c2ccccc2CO[C@@H]1CN(C)S(=O)(=O)c1cn(C)cn1
screen / no.,41,42,43,44,45
rRNA inh HTS,0,4,-2,0,-1
rRNA inh HTS OD600,6,6,-5,-1,2
rRNA inh HTS RFP,-1.3,-3.4,2.7,-1.7,2.8

46: O=C(Nc1cccc(F)c1)N1C[C@H]2[C@@H](c3ccccc31)[C@@H](CO)N2C(=O)c1ccccn1
47: Cc1ccc(S(=O)(=O)N2C3CC(c4ccccc4)N(S(=O)(=O)c4cccc(Cl)c4)CC3C(=O)C[C@H]2c2ccccc2)cc1 (some centres not stated)
48: COc1ccc(S(=O)(=O)Nc2cccc3c2O[C@@H](CN(C)CC2CCCCC2)[C@@H](C)CN([C@H](C)CO)C3=O)cc1
49: O=C(CCN1CCCCC1)N[C@@H]1CC[C@@H](CCNS(=O)(=O)c2ccccc2)O[C@H]1CO
50: COc1ccc(S(=O)(=O)Nc2ccc3c(c2)C(=O)N([C@H](C)CO)C[C@H](C)[C@@H](CN(C)Cc2ccccc2)OCCCC[C@@H](C)O3)cc1
screen / no.,46,47,48,49,50
rRNA inh HTS,-3,8,0,3,-1
rRNA inh HTS OD600,-3,17,-3,0,1
rRNA inh HTS RFP,-1.1,-0.8,1.5,-0.5,-0.1

51: COc1ccc2c(c1)[C@@]1(OCCC=C[C@H]1C)C(=O)N2Cc1ccc(Br)cc1
52: C[C@H](CO)N1C[C@H](C)[C@@H](CN(C)C)Oc2ccc(NC(=O)Nc3cccc4ccccc34)cc2C1=O
53: COC(=O)C1=C(C)NC(=S)NC1c1cccc(OC)c1 (configuration not stated)
54: CNC(=O)C[C@@H]1CC[C@H]2[C@@H](COc3ccc(NC(=O)Nc4c(C)noc4C)cc3C(=O)N2C)O1
55: CN1CCN(C(=O)C[C@H]2C[C@H]3c4cc(NC(=O)Nc5ccccc5)ccc4O[C@H]3[C@@H](CO)O2)CC1
screen / no.,51,52,53,54,55
rRNA inh HTS,-3,2,23,0,2
rRNA inh HTS OD600,-4,6,20,4,1
rRNA inh HTS RFP,-2.0,-1.8,-0.5,0.2,-0.7

56: C[C@H]1CN([C@@H](C)CO)C(=O)c2cc(-c3cccc(F)c3)cnc2O[C@@H]1CN(C)Cc1cccc(F)c1
57: C[C@H](CO)N1C[C@H](C)[C@H](CN(C)C(=O)c2cccc(F)c2)Oc2ncc(-c3ccccc3)cc2C1=O
58: C[C@@H]1CCCCO[C@H](CN(C)Cc2ccc(C(F)(F)F)cc2)[C@@H](C)CN([C@H](C)CO)C(=O)c2cc(NC(=O)Nc3ccc(C(F)(F)F)cc3)ccc2O1
59: CCOC1=C2CN(S(=O)(=O)c3ccc(C)cc3)C(c3ccccc3)CC2N(S(=O)(=O)c2ccc(C)cc2)C(c2ccc(Br)cc2)C1 (configuration not stated)
60: COc1ccc(NC(=O)N(C)C[C@H]2Oc3ccc(NC(=O)Nc4c(C)noc4C)cc3C(=O)N([C@@H](C)CO)C[C@H]2C)cc1
screen / no.,56,57,58,59,60
rRNA inh HTS,-5,4,-1,5,1
rRNA inh HTS OD600,-6,7,-2,9,1
rRNA inh HTS RFP,3.5,-0.3,3.0,-1.9,-0.5

61: CNC(=O)C[C@@H]1CC[C@@H]2[C@@H](COc3ccc(NC(=O)C4CC4)cc3C(=O)N2C)O1
62: COc1ccc(NC(=O)N(C)C[C@H]2OCCCC[C@H](C)Oc3ccc(NS(=O)(=O)c4c(C)noc4C)cc3C(=O)N([C@@H](C)CO)C[C@H]2C)cc1
63: CN1c2ccc(-c3cccc(C#N)c3)cc2[C@H]2[C@H](CCN2C(=O)NC2CCCCC2)[C@H]1CO
64: CC(C)[C@H](NC(=O)c1ccccc1)C(=O)N1CCC[C@H]1C(=O)NCCc1ccccc1Cl
65: O=C(Cc1c[nH]c2ccccc12)Nc1ccc(Nc2cccnc2)cc1
66: CC(C)CC#Cc1ccc([C@H]2[C@H]3CN(C(=O)NC(C)C)CC(=O)N3[C@H]2CO)cc1
screen / no.,61,62,63,64,65,66
rRNA inh HTS,0,-1,-9,1,-31,0
rRNA inh HTS OD600,-5,-3,-42,-4,-41,-5
rRNA inh HTS RFP,-0.2,-0.1,24,6.6,-5.7,11
